Calb FLC: affects C. albicans growth with fluconazole; C. albicans CaCi-2 (fluconazole-resistant clinical isolate) + fluconazole, Alamar Blue growth, 48 h; growth inhibition, % (concentration not given with the values); 0.57% of 300,000 active; AID 1979;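 active means most replicates above 75%; inconclusive means exactly half above 75%; inactive means most below 75%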;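 further: all wells also contain fluconazole at 8 µg/ml as a sub-toxic cotreatment; 0% = median of DMSO wells and 100% = median of geldanamycin control wells; wells of about 8 µL received 7.5 nL stock; the first replicate is given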
FGF22 binding: FGF22 (human) thermal shift binding. 1.5% of 340,000 active. AID 651658. recombinant FGF22 thermal shift, SYPRO orange fluorescence; percent of sucrose octasulfate shift, DMSO zero. Q9HCT0. calls only at 9.99 µM;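 active means melting point raised past a set limit in the mean and every replicate; inconclusive means no clear call; three in four hits are not shown here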
Target sequence (Q9HCT0 whole entry, looked up): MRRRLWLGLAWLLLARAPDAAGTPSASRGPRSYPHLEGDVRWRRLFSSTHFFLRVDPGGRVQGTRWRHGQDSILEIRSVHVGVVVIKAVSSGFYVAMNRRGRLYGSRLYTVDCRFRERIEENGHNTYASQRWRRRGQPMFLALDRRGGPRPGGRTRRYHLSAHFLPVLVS
T cruzi repl: T. cruzi replication inhibition; T. cruzi beta-gal in NIH3T3, luminescence, 90 h; inhibition, % (no concentration beside the values); 1.4% of 300,000 active;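 active means mean inhibition across valid replicates above about 55%, limit read from the data; inconclusive means mean below that limit but half or more replicates reach it; inactive means mean below it, under half of replicates reach it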;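 further: signal also drops with host cell toxicity which is not excluded here; 0% = plate median of DMSO wells and 100% = zero luminescence signal; higher percent means less beta-gal luminescence so fewer parasites; stock transfer was 50 nL into about 50 µL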
MLL AF4-AF9 inh: inhibitors of human MLL-AF4/AF9 interaction; 0.47% of 350,000 active; AlphaScreen, biotin-AF4 peptide binding to FLAG-AF9; P42568; AID 651704; inhibition, % at 10 µM;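 active means every replicate reaching a set inhibition limit, whatever the replicate mean, cut at about 25% in these data; inconclusive means mean inhibition reaches that limit but some replicates miss it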;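 further: 0% = plate neutral control median and 100% = total signal loss; the record names both 10 and 1 µM as test concentration; the first replicate is given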
Target sequence (P42568 whole entry, looked up): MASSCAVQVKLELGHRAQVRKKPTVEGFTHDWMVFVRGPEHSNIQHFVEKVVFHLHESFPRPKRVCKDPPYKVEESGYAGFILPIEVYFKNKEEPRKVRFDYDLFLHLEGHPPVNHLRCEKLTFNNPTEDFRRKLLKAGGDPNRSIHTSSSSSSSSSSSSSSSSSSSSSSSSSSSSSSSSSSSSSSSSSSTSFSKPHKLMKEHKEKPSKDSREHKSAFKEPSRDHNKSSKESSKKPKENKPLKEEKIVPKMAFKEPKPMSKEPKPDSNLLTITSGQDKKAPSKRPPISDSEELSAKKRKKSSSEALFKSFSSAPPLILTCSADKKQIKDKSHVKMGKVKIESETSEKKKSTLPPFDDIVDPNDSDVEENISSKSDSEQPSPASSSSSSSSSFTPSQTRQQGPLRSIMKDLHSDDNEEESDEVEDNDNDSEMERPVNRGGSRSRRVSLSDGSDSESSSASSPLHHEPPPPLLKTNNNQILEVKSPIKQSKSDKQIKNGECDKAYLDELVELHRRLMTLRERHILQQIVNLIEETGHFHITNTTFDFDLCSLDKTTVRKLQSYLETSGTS
ALR H2O2 inh: blocks human ALR sulfhydryl oxidase activity; 3.8% of 290,000 active; inhibition, % (test concentration not listed); purified ALR, DTT oxidation, H2O2 HRP-luminol luminescence; P55789;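 active means mean and each replicate at 75% or more; inconclusive means only one of the two met; inactive means neither met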;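 further: stock transfer was 7.5 nL into about 7.5 µL; 0% = neutral wells and 100% = wells with inactivated enzyme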
Target sequence (P55789 whole entry, looked up): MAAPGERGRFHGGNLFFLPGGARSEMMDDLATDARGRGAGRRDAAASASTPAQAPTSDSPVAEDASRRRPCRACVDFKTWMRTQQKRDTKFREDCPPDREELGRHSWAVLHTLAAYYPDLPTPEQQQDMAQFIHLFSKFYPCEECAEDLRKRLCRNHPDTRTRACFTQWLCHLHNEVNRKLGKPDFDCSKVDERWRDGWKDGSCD
Ecoli rRNA inh: inhibits bacterial ribosomal RNA function over humanized ribosomes. GFP signal change (wild-type ribosome), % (concentration not given with the values). E. coli WT GFP vs humanized-ribosome RFP mutants, fluorescence, 24 h; stronger effect = lower value; DMSO median 0, no signal -100. AID 720706. 1.6% of 350,000 active;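 active means significant combined selectivity score with lowered wild-type GFP, culture density cut under 30%, mutant RFP and density less affected; inactive means any of these conditions unmet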; further: one replicate is shown; some compounds called inactive have numbers as strong as hits
Beta cell apopt: blocks beta cell apoptosis; INS-1E cytokine-induced death, ATP luminescence, 48 h; percent of positive-control rescue, neutral wells zero; protection from apoptosis, % (concentration not given with the values); 0.8% of 300,000 active; AID 435005;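 active means all replicates at 75% or more, or half of them and the mean; inconclusive means half reach 75% but not the mean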;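 further: 0% = cytokine-treated negative control wells and 100% = positive control rescue; higher means more ATP so stronger rescue from cytokine killing; wells of about 40 µL received 100 nL stock; the first replicate is given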
RanGTP-Impb inh: inhibitors of RanGTP-importin-beta interaction, primary screen, biochemical, FRET, CFP-Ran, YFP-importin-beta, homogeneous; cell-free CFP-Ran/YFP-importin-beta FRET ratio; inhibition, % (test concentration not listed); 1.1% of 300,000 active;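 active means most replicates above 15%; inconclusive means exactly half above 15%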;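 further: 0% = DMSO wells and 100% = Ran loaded with GDP instead of GTP; wells of about 40 µL received 100 nL stock; the first replicate is given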
Ecoli rRNA inh OD600: second read-out of Ecoli rRNA inh, no call of its own (marks repeat the call); OD600 change, %; measured here: OD600 growth;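 optical density of the mix in the first replicate; 0 = DMSO median and -100 = no signal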
Ecoli rRNA inh RFP: recorded beside Ecoli rRNA inh, whose call it bears; RFP signal change, %; measured here: RFP humanized mutant strains;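 first replicate; 0 = DMSO median and -100 = no signal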
* = called active by the depositor; i = inactive; ? = inconclusive; nt = no result given; + = active, no number; & = joins results of further samples. Not all compounds are listed. The share of hits here may be higher or lower than overall.

compound	Calb FLC	RanGTP-Impb inh	Ecoli rRNA inh RFP	FGF22 binding	MLL AF4-AF9 inh	Ecoli rRNA inh OD600	Beta cell apopt	ALR H2O2 inh	Ecoli rRNA inh	T cruzi repl
CCOC(=O)c1ccccc1NC1CC(=O)N(c2ccccc2C)C1=O (stereo not drawn)	-8	-1.6	nt	nt	nt	nt	-5	-14	nt	7
COCCN(C(=O)CSc1nnc(C)n1Cc1ccccc1)c1c(N)n(Cc2ccccc2)c(=O)[nH]c1=O	-2	-1.2	nt	nt	nt	nt	1	-17	nt	-11
Brc1ccc(C2=Nn3c(Cn4nnc5ccccc54)nnc3SC2)cc1	-2	0.6	0.0	i	-4.6	6	-7	3	20	4
Oc1ccc(Nc2ncnc3c2oc2ccccc23)cc1	4	2.7	-11	i	2.8	-12	7	42	-9	-26
O=C(c1ccc(OC2CCN(Cc3ccccc3C(F)(F)F)CC2)cc1)N1CCCCC1	4	3.3	-3.5	i	1.4	-10	nt	-9	-13	10
O=C(Nc1ccnn1C1CCN(C/C=C/c2ccccc2)CC1)c1ccccc1Cl	17	1.3	-1.9	i	4.5	-1	nt	-16	4	32
CCC(CC)C(=O)c1c[nH]c(C(=O)NCC2CCCO2)c1 (stereo not drawn)	4	-1.6	nt	nt	nt	nt	-11	-6	nt	9
O=C(O)c1cccc(NC(=S)NC(NC(=O)c2cccc([N+](=O)[O-])c2)C(Cl)(Cl)Cl)c1 (stereo not drawn)	-13	3.1	8.3	+	-9.0	1	10	-5	4	37
Oc1ccccc1N=Nc1nc(-c2ccccc2)c(-c2ccccc2)[nH]1	1	-23	nt	nt	nt	nt	86*	69	nt	63*
Cn1cc(Cl)c(C(=O)NC2CCCC2)n1	33	2.7	-10	i	4.5	12	-4	3	5	-2
CCN(CC)S(=O)(=O)c1cc(NC(=O)C(C)N2CCc3ccccc32)ccc1C (stereo not drawn)	29	1.6	63	i	0.0	4	5	-1	-8	3
Cc1ccc(C(=O)Cn2nnc(-c3cccs3)n2)cc1	3	0.9	-7.3	i	2.1	1	-6	-3	8	2
O=C(CCNC(=O)Cn1ccc2ccccc2c1=O)NCCN1CCc2ccccc2C1	0	1.1	nt	nt	nt	nt	nt	-6	nt	-8
Cc1ccc(S(=O)(=O)Nc2cccc(C(=O)NCC(c3ccccc3)N(C)C)c2)cc1F (stereo not drawn)	-4	0.3	5.5	i	0.3	-4	1	-4	-1	-14
COc1cccc(C(=O)N(Cc2ccc3c(c2)OCO3)Cc2nc3ccccc3c(=O)[nH]2)c1	6	3.8	nt	nt	nt	nt	2	-20	nt	-13
O=C(NCC1CCCO1)Nc1cccc(Cl)c1 (stereo not drawn)	8	0.8	nt	nt	nt	nt	-1	-8	nt	1
Cc1nc(SCc2c(F)cccc2Cl)n[nH]1	-3	-4.8	nt	nt	nt	nt	-3	-5	nt	-5
CCC1=Nc2cc(C(=O)NCCCOC(C)C)ccc2Sc2ccccc21	53	0.6	nt	nt	nt	nt	4	1	nt	14
O=[N+]([O-])c1nn(-c2ccc3c(c2)OCCO3)n(O)c1=NCCC1=CCCCC1	-4	3.8	8.3	i	9.0	-6	-12	-40	3	94*
CC(Oc1ccccc1)C(=O)Nc1ccc(C(N)=O)cc1 (stereo not drawn)	12	-1.2	nt	nt	nt	nt	0	-5	nt	0
CC1CC(C)CN(CCCNC(=O)CC2Oc3ccccc3NC2=O)C1 (stereo not drawn)	8	2.6	-3.8	i	12	3	nt	1	13	-9
CCCOc1cccc(C(=O)NCCCNC(=O)c2cccnc2)c1	7	-3.7	-0.3	i	-1.2	0	-1	4	8	-3
CCCCc1nnc(NC(=O)c2oc3ccccc3c2C)s1	21	?	2.2	nt	-1.2	6	-4	0	7	5
CCOc1ccccc1-n1nnnc1SC(C)C(=O)OC (stereo not drawn)	-2	-1.2	-1.4	i	0.1	0	-7	0	1	0
O=c1oc(CCO)cc2ccccc12	nt	nt	3.4	i	0.7	21	-1	1	19	nt

(list continues)
compound	Calb FLC	RanGTP-Impb inh	Ecoli rRNA inh RFP	FGF22 binding	MLL AF4-AF9 inh	Ecoli rRNA inh OD600	Beta cell apopt	ALR H2O2 inh	Ecoli rRNA inh	T cruzi repl
CCN(c1ccccc1)S(=O)(=O)c1ccc(C(C(=O)OC)C(=O)OC)c([N+](=O)[O-])c1	-5	8.7	-1.6	nt	5.7	1	-6	-5	5	16
CC(C)OCCCNc1ccc(N2C(=O)CCCC2=O)cc1[N+](=O)[O-]	0	-3.4	0.5	i	-1.8	17	-2	0	5	-7
CCn1cnc2c([N+](=O)[O-])c(NS(=O)(=O)c3ccc(C)cc3)ccc21	5	2.3	4.9	i	-4.3	-13	-4	nt	-8	-13
O=C1C(Br)=Cc2cccc3cccc1c23	-11	-50	28	i	18	-8	-12	-1	-9	-2
CN1CCN(CCCN2c3ccccc3Sc3ccc(Cl)cc32)CC1	nt	-1.2	nt	i	36*	nt	3&0	99*	nt	31
O=C(O)CNS(=O)(=O)c1ccc2c(c1)CCCC2	20	-0.9	0.6	nt	-3.5	17	-8	-39	21	-5
Cc1ccc(C(=O)Nn2c(N)c(S(=O)(=O)c3ccc(C)cc3)c3nc4ccccc4nc32)cc1	-47	-3.7	nt	nt	nt	nt	5	nt	nt	7
COc1cc(C=O)ccc1OCCCOc1ccccc1[N+](=O)[O-]	5	?	-1.7	i	-12	-3	-5	nt	-10	2
COc1ccc(C(OC(=O)c2ccco2)C(=O)NC2CCCCC2)cc1OC (stereo not drawn)	-6	-1.4	nt	nt	nt	nt	-2	6	nt	6
Cc1cc(C)nc(NC(=O)c2cccs2)c1	-3	3.2	-0.6	i	0.9	6	1	-3	3	-2
COc1ccccc1CNC(=O)N1CCN(c2ccccc2)CC1	-1	1.8	-0.2	i	-0.5	3	-1	60	-2	-2
O=C(CS(=O)(=O)Cc1ccccc1)N1CCc2ccccc21	-14	1.7	nt	nt	nt	nt	-3	-4	nt	-6
O=C(CCc1ccccc1)Nc1cccc([N+](=O)[O-])c1	-19	3.0	2.7	i	3.7	9	9	-4	-1	0
COc1ccccc1NC(=S)N/N=C/c1cccc(C)c1	-20	5.6	2.2	i	-1.4	9	13	3	-5	19
CCOC(=O)c1c(C)[nH]c(C(=O)CSc2nnc(Nc3ccccc3F)s2)c1C	-6	?	nt	nt	nt	nt	-1	nt	nt	7
N/C(=N\c1nc2ccccc2o1)NC(=O)c1ccccc1	-6	1.2	nt	nt	nt	nt	-4	-4	nt	15
O=C(Cn1cc(Cl)ccc1=O)c1ccc(Cl)cc1	?	?	-0.6	i	-0.8	3	2	-5	3	-26
CNC(=O)CCCCC(=O)N/N=C/c1ccc(Cl)cc1Cl	-3	0.6	-2.7	i	-35	6	-6	0	9	2
CCCn1c(=O)c(C(=O)Nc2cccc(C)n2)c(O)c2ccccc21	6	2.5	0.3	i	-34	8	nt	-3	11	-15
O=C(CSc1nnc(-c2ccccc2)c(-c2ccccc2)n1)Nc1ncc(Cl)cc1Cl	14	?	nt	nt	nt	nt	2	62	nt	5
C=CCC1S/C(=N/N=C/c2cccs2)NC1=O (stereo not drawn)	1	3.9	-2.4	i	1.5	13	7	-10	6	-25
O=C(CC(=O)N/N=C\c1ccc(F)cc1)NCCc1ccccc1	-3	-0.7	2.8	i	-0.5	10	0	39	7	2
Cc1nn(S(=O)(=O)c2ccccc2)c(C)c1Sc1ccc([N+](=O)[O-])cc1	9	-1.9	nt	nt	nt	nt	-6	-4	nt	16
COc1ccc(/C=C/C(=O)Nc2ccc(S(=O)(=O)Nc3onc(C)c3C)cc2)cc1OC	10	-7.3	-1.0	i	-4.2	3	nt	8	6	-6
O=C(N/N=C/c1ccco1)c1cccc(S(=O)(=O)Nc2ccccc2Cl)c1	-2	-0.3	nt	nt	nt	nt	-8	-5	nt	-6

(next part)
compound	Calb FLC	RanGTP-Impb inh	Ecoli rRNA inh RFP	FGF22 binding	MLL AF4-AF9 inh	Ecoli rRNA inh OD600	Beta cell apopt	ALR H2O2 inh	Ecoli rRNA inh	T cruzi repl
CC1SC(c2ccc(F)cc2)N(CCc2ccccc2)C1=O (stereo not drawn)	-8	-0.7	-0.5	i	-1.4	-64	nt	nt	-36	-8
O=C(NCc1ccc(F)cc1)C1CCCN(C(=O)NCc2ccccc2)C1 (stereo not drawn)	-3	1.0	0.2	i	-1.3	7	-3	-1	8	-7
CNC(=O)CCCc1nc(-c2ccccc2Cl)no1	17	9.7	1.6	nt	nt	10	-5	0	1	-5
CC(/C=C/c1cccc([N+](=O)[O-])c1)=N/NC(=O)c1cccnc1	1	3.5	-7.2	i	-0.4	-2	-6	nt	7	8
CC(OC(=O)c1oc2ccccc2c1COc1ccccc1)C(N)=O (stereo not drawn)	109*	-1.7	-2.2	i	0.1	-7	nt	-4	-4	-8
CC(=O)OC(Cn1ccnc1)c1ccccc1 (stereo not drawn)	-1	-2.0	nt	nt	nt	nt	0	1	nt	14
COc1ccc(NC(=O)c2cc(S(=O)(=O)N(Cc3ccccc3)c3ccccc3)ccc2Cl)cn1	-1	-2.8	-0.6	i	1.7	-5	3	-10	-10	23
CN1CCC(N(C)C(=O)Cc2ccccc2[N+](=O)[O-])CC1	10	-1.4	4.1	i	-0.6	16	-5	0	26	-4
Nc1ncnc2oc(-c3ccco3)c(-c3ccco3)c12	16	-4.9	nt	nt	nt	nt	nt	-14	nt	-10
CCCNCC(O)COc1ccccc1C(=O)CCc1ccccc1 (stereo not drawn)	nt	5.6	nt	i	-0.5	nt	-6	nt	nt	8
COc1ccc(NC(=O)CSc2n[nH]c(N)n2)cc1OC	30	-1.0	-0.9	i	-2.2	3	nt	-15	10	-14
Cc1ccc(S(=O)(=O)N(C)C)cc1NC(=S)NCCc1ccccn1	-5	-3.4	-0.1	nt	0.9	9	-12	-1	4	-10
CCOc1ccc(CCNC(=O)CCc2nnc3ccc(N4CCOCC4)nn23)cc1	-7	5.8	0.9	i	15	12	0	-6	7	-9

Source: PubChem (Broad Institute)
